# Rce1 inhib: inhibitors of yeast Ras-converting enzyme; yeast membranes, quenched prenylated peptide cleavage fluorescence; calls only; 290,000 compounds, 0.27% hits;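 active = fall in fluorescence gain of 50% or more versus controls, with final raw signal at or below 3038400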;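 note: plate controls were neutral control wells for no effect and wells lacking membranes for full effect; tested at 10 µM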
# CSC inhib: blocks cancer stem cells; 300,000 compounds, 1.1% hits; AID 2717; cancer stem cell-like cells viability, luminescence; inhibition, % at 7.5 µM;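 active = mean at 75% or more and at least half the replicates too; tested in HMLE shEcad cells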;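 note: 0% = median of negative and 100% = median of positive control wells; the first replicate is given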
# PABP FP inh: PABP-poly(A) binding inhibition; PABP-poly(A) RNA binding, fluorescence polarization; inhibition, % at 35 µM; 290,000 compounds, 1% hits; AID 2014;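 active = 50% or more with normal probe brightness, or confirmed in later tests; about a fifth of its hits are not listed in these tables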;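 note: calls also rest on retests at 20 µM and on dose response follow-up; controls were probe without protein and protein plus probe with vehicle; some compounds called inactive have numbers as strong as hits; many hits fall short of the cut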
# Target sequence (P11940 whole entry, looked up): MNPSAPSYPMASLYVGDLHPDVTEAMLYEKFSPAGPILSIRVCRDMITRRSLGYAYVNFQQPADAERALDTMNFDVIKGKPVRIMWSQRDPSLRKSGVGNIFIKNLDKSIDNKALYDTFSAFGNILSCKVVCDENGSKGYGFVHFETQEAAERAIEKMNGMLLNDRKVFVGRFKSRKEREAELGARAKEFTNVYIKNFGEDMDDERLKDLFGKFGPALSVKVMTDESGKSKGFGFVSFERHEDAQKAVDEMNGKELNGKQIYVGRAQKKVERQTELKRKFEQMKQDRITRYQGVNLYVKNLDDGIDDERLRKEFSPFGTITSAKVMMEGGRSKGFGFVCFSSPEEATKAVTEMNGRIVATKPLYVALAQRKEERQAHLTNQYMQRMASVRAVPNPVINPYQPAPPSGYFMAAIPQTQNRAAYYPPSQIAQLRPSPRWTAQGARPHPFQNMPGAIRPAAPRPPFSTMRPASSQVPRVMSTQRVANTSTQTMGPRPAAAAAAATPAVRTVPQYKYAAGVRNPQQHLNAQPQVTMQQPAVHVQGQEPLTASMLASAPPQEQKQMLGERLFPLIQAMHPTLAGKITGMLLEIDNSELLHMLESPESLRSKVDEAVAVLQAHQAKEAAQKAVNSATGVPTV
# MT1-MMP act inh: blocks activation of human MT1-MMP; HT1080 RFP-PRO-GFP cells, GFP/RFP ratio fluorescence, overnight; percent of plate control window, DMSO zero; AID 651647; P50281; 360,000 compounds, 0.061% hits; GFP/RFP ratio change, % at 20 µM;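 active = GFP/RFP ratio change of at least 30% with cell ATP level not reduced by more than half and red fluorescence within 50% of control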; note: strong numbers were not always called active
#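 Assay system: HT1080 RFP-PRO-GFP cells | Dosing: 20 µM single dose, 1% DMSO | Incubation: Cells overnight before dosing, compound overnight, 37 °C, 5% CO2 | Evaluation: GFP/RFP fluorescence ratio | Control set: DMSO-only wells and HT1080 RFP-L50D-GFP cell wells as references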
# HIV Env fusion: blocks HIV Env-driven cell-cell fusion; HeLa-JRFL Env/CEM21 cell fusion, luciferase; inhibition, % at 12.3 µM; 360,000 compounds, 1.1% hits; AID 651610;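 active = mean replicate inhibition score of at least 50 and every replicate individually at or above 50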;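 note: 0% = plate neutral controls and 100% = maraviroc near 300 nM; one replicate is shown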
# Yeast UUG start: alters start codon recognition fidelity in yeast. 350,000 compounds, 0.13% hits. activity score, % at 18.7 µM. S. cerevisiae UUG-firefly luciferase reporter, luminescence/redox ratio;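 active = replicate mean at a twofold rise or more, about +100% in these data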;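 note: firefly luciferase made from a UUG start codon reports start codon fidelity; reporter light over untreated wells divided by growth signal over untreated wells; some hits fall short of that in this replicate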
# eIF4H inh: inhibitors of RNA binding by human eIF4H; Q15056; eIF4H fluorescence polarization binding assay; inhibition, % at 35 µM; 290,000 compounds, 0.94% hits; AID 2012;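 active = 50% or more with normal probe brightness, or confirmed in later tests; about a fifth of its hits are not listed in these tables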;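 note: calls also rest on retests at 20 µM and on dose response follow-up; 0% = protein and probe with vehicle and 100% = probe without protein; strong numbers were not always called active; many hits fall short of the cut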
# eIF4H inh retest: further read-out of eIF4H inh, marked with its call; inhibition, %; compound at 20 µM; confirmation average;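 mean of two retest wells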
# PABP FP inh retest: second read-out of PABP FP inh, no call of its own (marks repeat the call); inhibition, %; compound at 20 µM; confirmation repeats;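 mean of two retest wells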
# MT1-MMP act inh RFP: recorded beside MT1-MMP act inh, whose call it bears; RFP signal change, %; measured here: RFP expression control read;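 0 = vehicle wells; hits needed this value within 50% of zero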
# * hit, by the source's call; i = inactive; / = not tested or not shown. The list is partial; count on the stated rates, not on these rows.
SMILES,Rce1 inhib,CSC inhib,PABP FP inh,MT1-MMP act inh,MT1-MMP act inh RFP,HIV Env fusion,Yeast UUG start,eIF4H inh,others
COc1ccc(Cc2nc3ccc(C(=O)NCCc4ncccc4C)cc3o2)cc1OC,/,/,/,2,-2,29,-5,/,
COc1ccc2nc(SCc3cccc(C)c3)nc(C)c2c1,i,-2,-11,3,-1,-113,/,6,
COc1cc(C(=O)c2c(C)c(CCC#N)n3ccccc23)cc(OC)c1OC,i,11,14,-2,2,-104,/,-1,
O=C(NCc1ccncc1)c1cccc(NS(=O)(=O)c2ccc(F)c(F)c2)c1,/,-1,/,1,-1,2,1,/,
CCn1nc(C)cc1C(=O)N1CCCC(N(C)CCc2ccc(OC)c(OC)c2)C1 (stereo unspecified),i,9,7,-2,-1,0,-11,-3,
CCOC(=O)c1cnc(SC)nc1Oc1cccc(NS(=O)(=O)c2ccc(C)cc2)c1,/,20,6,-5,-8,2,0,0,
CCN(CC)S(=O)(=O)c1ccc(NC(=S)NC(=O)C2CCC2)cc1,i,/,-11,1,-2,-20,8,2,
Cc1cc(SCc2ccc(C(F)(F)F)cc2)nc(=O)[nH]1,i,-9,/,0,-1,6,-2,/,
CCOC(=O)c1c(N)sc(C(=O)N(C)C)c1C,i,-5,4,-2,-1,/,12,-2,
CCOC(=O)C1(CCOC)CCN(Cc2ccc(C3CCCCO3)s2)CC1 (stereo unspecified),i,-7,-4,-5,0,4,-17,-4,
CCOC(=O)c1c(NC(=O)COC(=O)Cn2c(C)nc3ccccc32)sc2c1CCCC2,i,7,11,3,-2,-9,-20,3,
O=C(CSc1nnc(CNc2ccc(F)cc2)n1-c1ccccc1)N1CCOCC1,i,-15,-3,1,2,/,-6,3,
CCOc1ncccc1C(=O)N1CCCSC1=Nc1ccccc1OC,i,-3,-5,-1,3,17,/,2,
CC(=O)N1CCc2cc(S(=O)(=O)CCC(=O)Nc3cc(C)cc(C)c3)ccc21,i,-2,5,-2,-3,-1,-2,-2,
CC(C)(C)OC(=O)N1CCC(C(=O)Nc2ccc(C(=O)N3CCCC3)cc2)CC1,/,/,/,4,7,29,4,/,
C=CCn1c(SCC(=O)Nc2ccccc2F)nnc1C(C)NC(=O)c1ccccc1F (stereo unspecified),i,-7,0,-3,2,-2,-10,5,
Cn1cc(CN2CCN(CCc3ccccc3)C(CCO)C2)cn1 (stereo unspecified),i,19,-10,4,8,-3,/,5,
O=C(Nc1nc2ccc(S(=O)(=O)N3CCCCC3)cc2s1)c1cccnc1,i,9,45,-7,0,26,-10,30,
CS(=O)(=O)N(Cc1ccccc1)c1ccc(C(=O)N2CCc3ccccc3C2)cc1,i,-10,3,-8,-13,12,-7,0,
COc1cccc(CN2CCSCC2)c1,i,10,13,-1,3,/,-13,0,
CCCn1c(N)c(CC)c(=O)[nH]c1=O,i,-7,-3,8,8,-8,/,1,
Cc1cccn2c(CN3CCSCC3)c(C(=O)N3CCOCC3)nc12,i,-6,4,-7,-2,-2,-3,12,
O=C(C1CCCN1S(=O)(=O)c1ccc(Cl)cc1)N1CCOCC1 (stereo unspecified),i,-4,6,-6,2,-7,-11,-2,
COC(=O)C[C@H]1C[C@H]2c3cc(NC(=O)Nc4ccc(C(F)(F)F)cc4)ccc3O[C@H]2[C@@H](CO)O1,/,/,/,4,-2,-15,9,/,
C=CCn1c(C(C)NC(=O)c2cccc(C)c2)n[nH]c1=S (stereo unspecified),i,-8,-7,2,-5,6,/,-12,
COc1ccccc1NS(=O)(=O)c1cc(C(=O)N2CCCCCCC2)ccc1C,i,-2,/,0,-5,-2,11,/,
CCCOc1ccc(C(=O)CCCC(=O)c2ccc(OCCC)cc2)cc1,i,-8,0,-3,-3,1,-9,7,
Cc1nn(-c2ccccc2)c2nc(=O)n(-c3ccccc3)cc12,i,-2,9,1,1,/,-26,1,
COc1cccc(CC(=O)Nc2ccc(N3CCOCC3)c(S(=O)(=O)Nc3ccccc3OC)c2)c1,/,/,/,0,-2,-2,-1,/,
N=C(N)SCP(=O)(c1ccccc1)c1ccccc1,i,6,-5,-5,3,-15,/,6,

# 3 entries picked at random from the list so far:
SMILES,Rce1 inhib,CSC inhib,PABP FP inh,MT1-MMP act inh,MT1-MMP act inh RFP,HIV Env fusion,Yeast UUG start,eIF4H inh,others
CCOC(=O)c1c(N)sc(C(=O)N(C)C)c1C,i,-5,4,-2,-1,/,12,-2,
Cc1cccn2c(CN3CCSCC3)c(C(=O)N3CCOCC3)nc12,i,-6,4,-7,-2,-2,-3,12,
CCOC(=O)C1(CCOC)CCN(Cc2ccc(C3CCCCO3)s2)CC1 (stereo unspecified),i,-7,-4,-5,0,4,-17,-4,

# The listing continues.
SMILES,Rce1 inhib,CSC inhib,PABP FP inh,MT1-MMP act inh,MT1-MMP act inh RFP,HIV Env fusion,Yeast UUG start,eIF4H inh,others
CCC(C)c1ccccc1N1CC(C(=O)Nc2cccc(S(=O)(=O)N3CCOCC3)c2)CC1=O (stereo unspecified),i,-1,12,-2,-10,16,-16,-13,
O=C1NCCCN1Cc1ccc(F)cc1,i,-4,4,0,2,1,-17,-1,
CC(C)CC(NS(=O)(=O)c1ccc2[nH]c(=O)c(=O)[nH]c2c1)C(=O)O (stereo unspecified),i,1,13,4,10,-2,/,4,
Cc1cccc(NC(=O)Cc2cccs2)n1,i,11,4,-2,-3,-13,542*,2,
CC(C#N)(NC(=O)CN1CCN(S(=O)(=O)c2ccccc2C#N)CC1)C1CC1 (stereo unspecified),/,/,/,-2,-1,13,-3,/,
CC1CC2C3CCC4=CC(=O)C=CC4(C)[C@@]3(Cl)C(O)CC2(C)C1(O)C(=O)CO (stereo partly specified),i,-2,/,0,1,/,-12,/,
COc1ccc(-n2nc(C(=O)NCC(=O)NCCCN3CCOCC3)c3ccccc3c2=O)c(OC)c1,i,-13,-1,0,3,11,-8,-6,
CC(C)NC(=O)/C(=C/c1cn(-c2ccccc2)nc1-c1cccc([N+](=O)[O-])c1)NC(=O)c1ccccc1,i,8,-5,-11,-6,-52,-8,3,
C=CCOc1ccc(CNC(C)(C)CO)cc1OC,i,-22,-5,3,2,/,-9,-9,
CCOc1ccc(C(=O)c2cc3ccc(O)cc3oc2=O)cc1,i,-2,1,5,3,-16,/,8,
O=C(NCc1cccnc1)c1nc(-c2cccs2)no1,i,0,5,0,0,-11,/,0,
COc1ccccc1-n1cnnc1SCC(=O)c1cc(C)n(Cc2cccs2)c1C,i,1,19,6,3,-62,-18,3,
CC(C)NCC(O)Cn1c2c(c3ccccc31)CCc1c-2cnn1-c1ccccc1 (stereo unspecified),i,14,-14,11,-8,/,-4,-8,
COc1ccc(C(=O)NCc2ccccc2OC)c(OC)c1,i,0,0,-2,3,-27,-18,-4,
CCN(CC)CCN(C(=O)/C=C/c1cccs1)c1nc2ccc(Cl)cc2s1,i,-10,-14,3,-1,-12,-8,-4,
COC(CNC(=O)c1ccc(N2CCC3(CC2)OCCO3)c([N+](=O)[O-])c1)OC,i,-9,0,2,0,2,/,6,
O=C(CSCCc1ccccn1)Nc1cccnc1Cl,i,-5,6,14,5,13,-15,4,
CCC(=O)c1cccc(-c2ccccc2)c1CC,/,/,/,-2,-2,-42,-6,/,
CC(C)CC(=O)NC(=S)Nc1nc(-c2ccc(Cl)cc2)cs1,i,5,3,-2,-3,12,/,6,
Cc1cc(NC(=O)c2cc(-c3ccco3)on2)nn1Cc1ccc(Cl)cc1,i,42,6,-5,-15,25,10,-9,
Oc1cc(NCc2ccc(Cl)cc2)cc2cccnc12,/,/,/,-7,-15,25,-8,/,
CCCCC(=O)Nc1cccc(-c2cn3ccccc3n2)c1,i,-4,-1,9,7,/,2,1,
OC1CCN(Cc2cccc3ccccc23)CC1,i,-15,21,-2,4,5,-16,-4,
COc1ccccc1CNC(=O)c1sccc1C,i,1,-1,-2,1,-12,-12,-9,
Cc1ccccc1CC(=O)NCc1cccnc1,i,-6,3,-6,-5,-9,-25,4,
CC1Cc2ccccc2N1C(=O)Cn1nc(C(=O)O)c2ccccc2c1=O (stereo unspecified),i,-7,83,3,5,/,-8,10,eIF4H inh retest=0;PABP FP inh retest=29
O=C(CCc1ccccc1)N=C1SC2CS(=O)(=O)CC2N1c1ccc(F)cc1 (stereo unspecified),i,-4,-9,-2,1,2,-15,-7,
COc1cccc(CC(=O)NC2CCCN(Cc3ccccc3F)C2)c1 (stereo unspecified),i,-4,14,3,2,7,-10,-14,
CCCC(=O)Nc1nc(C)c(C(C)=O)s1,i,-15,-11,-2,4,-1,-5,-2,
COC(=O)CN1C(=O)[C@@H]2[C@H](C1=O)[C@@H]1CC(C(=O)OC)=C[C@@H](C(=O)OC)[C@@H]3C1=C(C(=O)[C@]3(C)NC(=O)c1ccccc1)[C@@H]2C,i,/,/,-10,9,-47,-14,/,
Cc1nc2c(Cl)cc(Cl)cc2[nH]1,i,-6,5,-3,0,/,/,12,
Cc1ccc(NC(=O)CCn2c(=S)oc3ccccc32)cc1,/,-7,1,2,2,-1,/,-7,
COc1ccc(N(CC(=O)NCc2ccccc2OC)S(=O)(=O)c2ccc(C)cc2)cc1Cl,i,-1,-2,-6,-6,7,-1,0,
CC(C)N1CCN(Cc2cc(F)ccc2-n2cccn2)CC1CCO (stereo unspecified),i,1,0,-2,-1,27,/,2,
CC(=O)Nc1ccc(NC(=O)CC2Nc3cccc4cccc(c34)NC2=O)cc1 (stereo unspecified),i,-1,84*,1,1,/,/,106*,eIF4H inh retest=110*;PABP FP inh retest=97*
Cc1ccc(S(=O)(=O)NNC(=O)C2CCN(S(=O)(=O)c3ccc(C)cc3)CC2)cc1,i,-9,-8,1,2,-7,10,-13,
O=C(NO)c1ccccc1C(F)(F)F,i,-9,-2,0,4,-1,/,-5,
COc1ccc2c(C)cc(=O)[nH]c2c1,/,-10,-1,0,-3,-139,/,10,
CCc1nc(C)cn1S(=O)(=O)c1cc([N+](=O)[O-])ccc1Cl,i,-3,-6,-7,-2,-23,-5,14,
CN(CC(=O)Nc1ccc(F)cc1)C(=O)c1cc(-c2ccco2)nc2ccccc12,i,6,/,-6,15,10,-7,/,
COc1c(C)cccc1C(=O)Nc1ccc(N2CCOCC2)c(Cl)c1,i,-1,10,2,2,/,/,4,
Cc1cccc(C(C#N)c2nc3ccccc3nc2C(F)(F)F)c1 (stereo unspecified),i,-6,/,2,1,/,-13,/,
CCC(C(=O)OCC(=O)N(CCOC)c1c(N)n(Cc2ccccc2)c(=O)[nH]c1=O)c1ccccc1 (stereo unspecified),i,-1,4,-2,3,-8,-1,-4,
CN(Cc1cccnc1)Cc1cn(C)nc1-c1ccc(Oc2ccccc2)cc1,i,-8,-5,0,-3,7,/,-2,
CCc1cccc(C)c1NC(=O)CN(C)C1=NS(=O)(=O)c2ccccc21,/,/,/,5,0,7,-19,/,
O=C(CCCN1C(=O)CCC1=O)Nc1ccc2c(c1)OCO2,i,-13,6,-1,4,/,-10,3,
COc1cccc(CC2(CO)CCN(Cc3cccn3-c3cccnc3)CC2)c1,i,-3,11,0,0,0,-16,4,
CN(C)CCN1C(=O)CCC2(C)C1=CCC1C2CCC2(C)C1CCC2(C)O (stereo unspecified),/,/,/,1,-4,1,0,/,
Cn1nc(C(F)(F)F)c2cc(C(=O)NC3CC3)sc21,i,/,16,0,0,/,/,-3,
CCCCn1c(N)c(N(CC(C)C)C(=O)c2ccc(COc3ccccc3)o2)c(=O)[nH]c1=O,i,-17,1,-7,3,-10,7,-12,
Brc1ccc2cccnc2c1,i,-5,7,0,4,/,-18,2,

# From PubChem BioAssay
